PABP polyA inh = blocks human PABP binding to poly(A) RNA. P11940. inhibition, % at 35 µM. fluorescence polarization. AID 2014. 290,000 tested, 1% active;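 active means 50% or more with normal probe brightness, or confirmed in later tests; inconclusive means above 50% with abnormal brightness, or retests that disagree; inactive means below 50% or failed in later tests; about a fifth of its hits are not listed in these tables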;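 further: calls also rest on retests at 20 µM and on dose response follow-up; controls were probe without protein and protein plus probe with vehicle; some compounds called inactive have numbers as strong as hits; many hits fall short of the cut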
Target sequence (P11940 whole entry, looked up): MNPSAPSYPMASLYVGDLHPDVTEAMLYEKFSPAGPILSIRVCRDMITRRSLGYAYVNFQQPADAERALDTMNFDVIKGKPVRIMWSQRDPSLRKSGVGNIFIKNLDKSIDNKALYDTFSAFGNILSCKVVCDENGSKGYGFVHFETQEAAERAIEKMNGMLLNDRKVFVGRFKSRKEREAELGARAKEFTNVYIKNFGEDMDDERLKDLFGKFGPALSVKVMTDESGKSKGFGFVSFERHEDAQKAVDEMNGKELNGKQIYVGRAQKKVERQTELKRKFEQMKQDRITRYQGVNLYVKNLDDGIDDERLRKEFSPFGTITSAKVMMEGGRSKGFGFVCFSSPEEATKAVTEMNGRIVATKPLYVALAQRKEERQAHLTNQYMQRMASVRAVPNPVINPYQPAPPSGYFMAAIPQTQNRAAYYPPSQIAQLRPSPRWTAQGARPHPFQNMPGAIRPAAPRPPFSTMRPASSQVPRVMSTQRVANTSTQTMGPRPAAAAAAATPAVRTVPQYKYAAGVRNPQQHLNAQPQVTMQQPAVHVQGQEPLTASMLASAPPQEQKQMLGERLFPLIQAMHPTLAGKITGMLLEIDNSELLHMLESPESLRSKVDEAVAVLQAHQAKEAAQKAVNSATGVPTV
CSC inhib = blocks cancer stem cells; inhibition, % at 7.5 µM; 300,000 tested, 1.1% active; cancer stem cell-like cells viability, luminescence;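 active means mean at 75% or more and at least half the replicates too; inconclusive means mean and replicates disagree; tested in HMLE shEcad cells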;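 further: 0% = median of negative and 100% = median of positive control wells; the first replicate is given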
HIV Env fusion = HIV envelope-mediated fusion inhibition. 360,000 tested, 1.1% active. HeLa-JRFL Env/CEM21 cell fusion, luciferase. AID 651610. inhibition, % at 12.3 µM;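 active means mean replicate inhibition score of at least 50 and every replicate individually at or above 50; inconclusive means only one of the two criteria met; inactive means mean below 50 and not all replicates reaching 50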;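 further: 0% = plate neutral controls and 100% = maraviroc near 300 nM; one replicate is shown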
eIF4H FP inh = inhibitors of RNA binding by human eIF4H; 290,000 tested, 0.94% active; Q15056; eIF4H fluorescence polarization binding assay; inhibition, % at 35 µM; AID 2012;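 active means 50% or more with normal probe brightness, or confirmed in later tests; inconclusive means above 50% with abnormal brightness, or retests that disagree; inactive means below 50% or failed in later tests; about a fifth of its hits are not listed in these tables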;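 further: calls also rest on retests at 20 µM and on dose response follow-up; 0% = protein and probe with vehicle and 100% = probe without protein; strong numbers were not always called active; many hits fall short of the cut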
MT1-MMP act inh = MT1-MMP (human) activation inhibition. HT1080 RFP-PRO-GFP cells, GFP/RFP ratio fluorescence, overnight; percent of plate control window, DMSO zero. P50281. GFP/RFP ratio change, % at 20 µM. 360,000 tested, 0.061% active;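 active means GFP/RFP ratio change of at least 30% with cell ATP level not reduced by more than half and red fluorescence within 50% of control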; further: strong numbers were not always called active
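Assay system: HT1080 RFP-PRO-GFP cells | Dosing: 20 µM single dose, 1% DMSO | Incubation: Cells overnight before dosing, compound overnight, 37 °C, 5% CO2 | Evaluation: GFP/RFP fluorescence ratio | Control set: DMSO-only wells and HT1080 RFP-L50D-GFP cell wells as references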
Rce1 inhib = inhibitors of yeast Ras-converting enzyme | calls only | Q03530 | yeast membranes, quenched prenylated peptide cleavage fluorescence | 290,000 tested, 0.27% active;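 active means fall in fluorescence gain of 50% or more versus controls, with final raw signal at or below 3038400; inconclusive means same 50% fall but final raw signal above 3038400; inactive means fall in fluorescence gain under 50%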;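 further: plate controls were neutral control wells for no effect and wells lacking membranes for full effect; tested at 10 µM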
UUG fidelity = yeast start codon fidelity modulation | activity score, % at 18.7 µM | S. cerevisiae UUG-firefly luciferase reporter, luminescence/redox ratio | 350,000 tested, 0.13% active | AID 602363;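 active means replicate mean at a twofold rise or more, about +100% in these data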;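 further: firefly luciferase made from a UUG start codon reports start codon fidelity; reporter light over untreated wells divided by growth signal over untreated wells; some hits fall short of that in this replicate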
MT1-MMP act inh RFP = also measured in MT1-MMP act inh; calls as there; RFP signal change, %; measured here: RFP expression control read;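 0 = vehicle wells; hits needed this value within 50% of zero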
* hit, by the source's call; i = inactive; u = inconclusive; x = no result given.

SMILES	PABP polyA inh	CSC inhib	HIV Env fusion	eIF4H FP inh	MT1-MMP act inh	MT1-MMP act inh RFP	Rce1 inhib	UUG fidelity
CCOC(=O)Cc1csc(NC(=O)Nc2cccs2)n1	4	12	-21	7	3	-10	i	-11
COc1ccc(S(=O)(=O)N2CCC(C(=O)NC3CC3)CC2)cc1	2	x	-7	7	0	0	i	-27
Cc1ccccc1C(=O)NC1CC2CCC(C1)N2Cc1ccccc1 (configuration not stated)	-10	-9	27	-11	1	1	i	x
COc1cccc(/C=N/N2CCN(c3ccc(Cl)cc3)CC2)c1OC	-10	-11	24	-3	2	-3	i	-15
CN(C)c1cccc(NC(=O)C2Cc3c(-c4ccccc4Oc4ccccc4)ccnc3O2)c1 (configuration not stated)	x	x	4	x	1	-6	x	0
COCc1c(C(N)=O)nnn1-c1nonc1N	-5	4	-39	2	2	2	i	-9
O=C(Cc1ccc(Cl)cc1)Nc1ccccc1Sc1ccccc1	4	4	x	-3	-5	-15	i	-21
CCOc1ccc(OC(=O)c2ccc3c(=O)n4c(nc3c2)CCC4)cc1	x	-8	x	x	-1	-2	i	-7
Cn1c(SCC(=O)NCc2ccc3c(c2)OCO3)nc2c(c1=O)SCC2	4	-8	5	-1	1	0	i	-9
CCn1c(SCC(=O)Nc2ccccc2-c2ccccc2)nnc1-c1ccoc1C	3	1	-31	-6	2	-6	i	-9
CC1(C(=O)NS(=O)(=O)c2cccc(OC(F)F)c2)CCN1C(=O)C1CC1 (configuration not stated)	x	x	-5	x	-1	1	x	-4
O=C(Nc1ncnc2sc3c(c12)CCCCC3)c1ccc(F)cc1	-5	8	0	-8	8	-3	i	-12
C/C(=N\NC(=O)CCn1nnc2ccccc21)c1ccco1	5	-1	3	-9	-2	2	i	-16
O=C(NCC1CCCO1)C(c1ccncc1)N(Cc1cccs1)C(=O)CN1C(=O)c2ccccc2S1(=O)=O (configuration not stated)	-4	15	0	-10	3	9	i	x
CCNC(=O)COC(=O)c1ccc(S(=O)(=O)N2CCCCCC2)cc1	0	-10	x	-5	0	5	i	-6
CN(C)S(=O)(=O)N1CCN(C(=O)N(c2ccccc2)c2ccccc2)CC1	3	x	x	-8	4	2	i	14
COc1ccc2c(c1)CCc1c(C(=O)N3CCCC3)noc1-2	2	x	-120	-2	16	-7	i	-4
CC(C)NC(=O)CCn1c(=S)oc2ccccc21	-4	-11	6	-1	-3	0	i	x
Cc1ccc(Oc2nsnc2N2CCOCC2)cc1	5	-5	-5	-1	2	-3	i	-15
CC(=O)Nc1ccc(S(=O)(=O)Oc2ccc(Br)cc2C(=S)N2CCOCC2)cc1	0	-6	17	-11	-2	-2	x	-17
COc1ccc(NS(=O)(=O)c2c(C)n(C)c(=O)n(C)c2=O)cc1OC	1	-9	11	5	-1	-1	i	-6
CCNc1nc(SCc2ccccc2)nc(N2CCOCC2)n1	-3	1	x	3	-1	-4	i	-19
O=C(NCCN1CCN(c2ccccc2)CC1)c1ccc2c(c1)[nH]c(=S)n1c3ccccc3nc21	-8	62	5	-5	4	1	i	x
CCNC(=O)C1(C)CCCN(C(=O)c2cc3ccccc3s2)C1 (configuration not stated)	x	x	7	x	0	5	x	0
Cc1cnnc2c1-c1no[n+]([O-])c1CC2	2	-15	-11	-6	-1	1	i	-22
CCn1nc(NC(=O)c2ccco2)c2cc3ccc(C)cc3nc21	5	-3	x	-10	-2	-4	i	x
O=C(COC(=O)CN1C(=O)NC2(CCCC2)C1=O)Nc1ccccc1C(F)(F)F	x	-3	-34	x	0	8	i	-7
C/C=N/NC(=O)CCNC(=O)c1ccccc1	14	11	3	11	0	6	i	x
COc1ccc(/C=N\NC(=O)c2ccccc2F)cc1COc1ccc(F)cc1	14	11	40	-4	1	-2	i	-26
COc1ccc(Cl)cc1C(=O)NNC(=O)c1nn(C)c(=O)c2ccccc12	x	0	-2	x	5	7	x	-2
CCn1cc(C(=O)NCCc2ccccc2)c(=O)c2cc(S(=O)(=O)N(C)C)ccc21	0	-1	21	-15	-4	-4	i	-20
CCCc1nc2c3ccccc3ccn2c1CC(C)(C)C	x	x	-1	x	-1	-2	x	55
COc1ccc(-n2nc(C(=O)NCC(=O)N3CCN(C)CC3)c3ccccc3c2=O)cc1	11	-40	3	-20	4	4	i	-11
COc1ccc(C(CCNCc2ccccc2F)c2ccc(F)cc2)cc1 (configuration not stated)	-6	15	-2	-9	-3	0	i	x
COc1ccc(C(=O)N2N=C(c3cccs3)CC2c2ccccc2O)cc1 (configuration not stated)	x	13	2	x	7	0	i	-6
CS(=O)(=O)N1CCN(c2ccc(NC(=O)c3ccc(Br)o3)cc2)CC1	-7	4	-47	-7	5	9	i	31
Nn1cnn(Cc2ccccc2)c1=S	3	-10	x	1	2	3	x	-1
COc1ccccc1OCCN1C(=O)S/C(=C\c2ccco2)C1=O	-11	-3	x	-13	-5	-7	i	-9
COc1ccccc1/C=C/C=N/n1c(-c2ccncc2)n[nH]c1=S	u	6	29	32	0	-5	i	x
COc1ccc(CCNC(=O)CNC(=O)c2ccccc2Br)cc1OC	-1	-20	2	2	-1	-1	i	-6
Cc1ccc(C(C)C)cc1S(=O)(=O)Nc1ccncc1	-2	-7	-4	-8	4	4	i	x
Cc1ccc(SCC(=O)Nc2ccc3c(c2)OCCO3)cc1	10	-10	-14	-4	8	10	i	x
Cc1cc(=O)[nH]c2ccc(Cl)cc12	1	-4	-65	-9	8	6	i	-6
COc1ccc(O)c(C(=O)c2cnc3c(c2)c(=O)[nH]c(=O)n3C)c1	-7	-12	-1	5	0	-4	i	-9
CN(C)S(=O)(=O)c1cccc(NC(=O)CNCC2CCCCC2)c1	-15	-6	8	-2	4	1	i	x
O=C(CSc1c2c(nc3cc(Cl)ccc13)CCCC2)NCc1ccco1	5	4	-76	8	-6	5	i	-21
COc1ccc(/C=N\NC(=O)c2nn(C)cc2Cl)cc1CN1CCOCC1	-1	-3	1	5	-4	-2	i	x
Cc1cc(C)c2nc(N3CCCC3)c(C#N)cc2c1	26	-1	-160	-2	-8	1	i	-16
COCC(C)NC(=O)c1cc(S(=O)(=O)N2CCCCC2)ccc1N1CCOCC1 (configuration not stated)	22	-12	3	-1	2	2	i	-17
COC(=O)c1cc(OC)c(OC)cc1NC(=O)Nc1ccccc1OC	7	2	-10	-2	0	1	i	-7
COc1ccc(-n2c(=S)[nH]c3cc(C(=O)N(C)Cc4ccccc4)ccc3c2=O)cc1	-5	-14	-2	0	5	0	x	-18
COc1ccc(-n2c(Cc3cccn3C)nnc2SCC(=O)Nc2ccc(C)cc2)cc1	-21	-21	4	-17	1	0	i	-22
Cc1c(C)n2c(SCC(=O)Nc3ccc4c(c3)OCCO4)nnc2[nH]c1=O	x	5	x	x	5	3	i	-21
Cc1ccc(NC(=O)CNC(=O)c2ccc(Br)o2)nc1	x	-8	5	x	3	-2	i	-12
CCc1cccc2c1NC(=O)C2(O)N1CCCC(C)C1 (configuration not stated)	14	-2	0	-6	1	0	i	-17
COC(=O)c1ccc(CNC(=O)c2ccc(S(=O)(=O)N3CCCC(C)C3)cc2)cc1 (configuration not stated)	x	x	-3	x	-2	-6	x	-22
N#Cc1ccc(NC(=O)c2sc3cc(C(F)(F)F)cnc3c2-c2cccs2)cc1	8	1	x	3	-4	1	i	-23
Cn1c(COc2ccccc2)nnc1SCC(=O)NNC(=O)C1CCCCC1	7	3	-13	7	0	3	i	x
S=C(Nc1cccc2ccccc12)NN1CCCCCC1	x	x	-47	x	3	4	x	-16
COc1ccc(NC(=S)N(Cc2ccc(Cl)cc2)Cc2ccc(C(=O)O)cc2)cc1Cl	-16	4	-1	-2	7	-1	i	-9
(more compounds)
SMILES	PABP polyA inh	CSC inhib	HIV Env fusion	eIF4H FP inh	MT1-MMP act inh	MT1-MMP act inh RFP	Rce1 inhib	UUG fidelity
Cc1ccc(O)c(C(=O)c2cnc3c(c2)COc2ccccc2-3)c1	10	-3	14	0	-18	-13	i	8
O=C(CNC(=O)N1CC(=O)Nc2ccccc21)NCc1ccccc1	13	-12	-8	-15	0	2	i	-15
Cc1cc(C(=O)N/N=C/c2cccc(OC(=O)c3ccco3)c2)n[nH]1	6	-3	-14	-1	-5	-7	i	-25
O=C(COc1ccc2ccccc2c1)Nc1cccc(C(=O)Nc2ccccc2C(=O)O)c1	7	58	0	3	4	5	i	x
Cc1ccc(S(=O)(=O)N2CC3CCCN3c3ccc(C(F)(F)F)cc32)cc1 (configuration not stated)	-5	47	48	-3	-9	-9	i	-16
CCOC(=O)c1c(C)[nH]c(N=Nc2cccc(C)c2)c1C	12	56	x	3	-4	-2	i	-6
CCc1ccc(C(=O)Nn2c(C)nc3ccccc3c2=O)cc1	-3	-16	-2	-6	-4	0	i	-23
CN(C)CCN1C(=O)C(=O)/C(=C(/O)c2ccc(OCc3ccccc3)cc2)C1c1ccncc1 (configuration not stated)	10	x	x	4	4	6	i	3
COc1ccc(C(=O)NC(C)c2nc3ccccc3n2C)cc1OC (configuration not stated)	12	5	-30	2	1	3	i	-14
c1ccc(-c2nnc(SCC3CCCCO3)nc2-c2ccccc2)cc1 (configuration not stated)	-4	x	3	-10	-1	-4	i	-21
CCC(C)NC(=O)C1CCCN(C(=O)NC2CCCCC2)C1 (configuration not stated)	1	x	-33	-8	0	-3	i	-6
COc1ccc(NC(=S)N(CCC(C)C)C2CCN(C(C)=O)CC2)cc1	-3	4	10	0	5	6	i	-25
CCOC(=O)c1c(NC(=O)Cc2ccccc2)sc2c1CCN(CC)C2	8	x	u	-5	-8	-3	i	-9
O=C(/C=C/c1ccc(S(=O)(=O)N2CCOCC2)cc1)NCCCn1ccnc1	9	-16	15	18	1	3	i	-2
O=C1NC2(CCCCC2)C(=O)N1/N=C/c1ccc(O)cc1O	9	-8	x	4	-1	3	i	-19
Cc1cc(Nc2cc(C(=O)O)ccc2C)n2ncnc2n1	3	10	4	7	5	4	i	-7
O=C(NC(=O)N1CCN(c2cccc(Cl)c2)CC1)c1ccc(Cl)cc1	-6	110*	-5	-15	0	3	i	-11
COc1ccccc1NC(=O)CSc1nnnn1-c1ccccc1F	-7	-8	0	-3	-3	-2	i	-10
COc1cccc(C(=O)Nc2ccc3c(c2)OC[C@H](C)N(C(=O)C2CCCC2)C[C@@H](C)[C@@H](OC)CN(C)C3=O)c1	x	x	4	x	2	8	x	6
COc1ncccc1C(=O)NC1CCCc2c1cnn2-c1cc(C)cc(C)c1 (configuration not stated)	10	-2	10	-16	-4	-1	i	-5
N=C1C(=O)OCC1c1ccccc1NC(=O)CN1CCCCC1 (configuration not stated)	4	-4	x	4	-3	2	i	x
O=C(NC(=S)N1CCN(c2ccccn2)CC1)c1ccco1	1	x	-15	4	2	4	i	-9
O=C(Oc1ccc([N+](=O)[O-])cc1)c1cncc(Br)c1	-3	12	8	-4	-2	0	i	x

Whole records as entered above. Values in the order: PABP polyA inh, CSC inhib, HIV Env fusion, eIF4H FP inh, MT1-MMP act inh, MT1-MMP act inh RFP, Rce1 inhib, UUG fidelity
Entry for O=C(NC(=O)N1CCN(c2cccc(Cl)c2)CC1)c1ccc(Cl)cc1 : -6, 110*, -5, -15, 0, 3, i, -11
Entry for O=C(NC(=S)N1CCN(c2ccccn2)CC1)c1ccco1 : 1, x, -15, 4, 2, 4, i, -9
Entry for COc1ncccc1C(=O)NC1CCCc2c1cnn2-c1cc(C)cc(C)c1 (configuration not stated) : 10, -2, 10, -16, -4, -1, i, -5
Entry for O=C(/C=C/c1ccc(S(=O)(=O)N2CCOCC2)cc1)NCCCn1ccnc1 : 9, -16, 15, 18, 1, 3, i, -2
